# Vaccinia Venus: qHTS for Stage-Specific Inhibitors of Vaccinia Orthopoxvirus: Venus Reporter Primary qHTS; actives 0.46% (n = 330,000); Potency, µM (doses to about 36.5 µM), without a hit: at the highest dose activity change, negative = inhibition, actives largely listed as inhibitors; Vaccinia virus Venus reporter expression, fluorescence; active means well fitted inhibition curve with a large enough effect; inconclusive means small, poorly fitted or top-dose-only effect; inactive means no such curve, though single readings can be large or run the other way; tested in A549 cells; further: nearly all actives have a fitted effect of over 30% in size; inactives centre near -10
# VACV mCherry inh: qHTS for Stage-Specific Inhibitors of Vaccinia Orthopoxvirus: mCherry Reporter Primary qHTS; Vaccinia virus mCherry reporter infection, fluorescence; about a quarter of the inactives have no number; Potency, µM (doses to about 36.5 µM), for inactives: at the top dose activity change, negative = inhibition, most hits filed as inhibitors; actives 0.63% (n = 310,000); active = well fitted inhibition curve with a large enough effect; inconclusive = small, poorly fitted or top-dose-only effect; inactive = no such curve, though single readings can be large or run the other way; tested in A549 cells; further: nearly all actives have a fitted effect of over 35% in size; inactives centre near -10
# An asterisk follows results filed as active; i = inactive; ? = inconclusive; . = no result given; [ ] = remark or other dose. On the % scale 0 is the no-effect control and ±100 the full control effect; potency means the concentration at half of the fitted maximal effect.
Compound	Vaccinia Venus	VACV mCherry inh
c1ccc(Cn2nnc3c(NCCN4CCOCC4)ncnc32)cc1	-14.9%	-13.0%
COc1cccc(NC(=O)Cn2c(=O)n(Cc3ccccc3)c(=O)c3ccccc32)c1	-0.4%	-12.2%
O=C(NC1CCOC1)c1ccc(OC2CCN(CCc3ccccc3)CC2)cc1 (centres undefined)	15.7%	-13.7%
CN1CCC(N(C)C(=S)NC(=O)C23CC4CC(CC(C4)C2)C3)CC1	-15.1%	-10.5%
CC1(C)C2CCC13CS(=O)(=O)N[C@@H]3C2 (some centres undefined)	-8.6%	i
Oc1cccc(/C=N/c2c(-c3ccco3)nc3ccccn23)c1	1.6%	-17.1%
COC(=O)c1coc(-c2ccc(OC)cc2)c1C(=O)OC	-4.1%	-7.7%
Cc1cccc(OCc2nnc(N)s2)c1C	-2.4%	.
COCCC(=O)N1CCCC(CCC(=O)NCc2ccc(F)c(F)c2)C1 (centres undefined)	-9.9%	?
CC(NC(=O)c1cccc(S(=O)(=O)N2CCN(C)CC2)c1)C1CC2CCC1C2 (centres undefined)	-18.0%	-9.3%
Cc1oc2ccc(NS(=O)(=O)c3ccccc3)cc2c1C(=O)Nc1ccccc1	0.2%	i
O=C(NC1CCC(O)CC1)c1cccc2cccnc12 (centres undefined)	-0.6%	-12.4%
Cc1nc(S(=O)(=O)c2ccc(Cl)cc2Cl)nc2c1CCC2	?	-6.4%
O=S1(=O)CC/C(=N/Nc2ccccn2)c2cc(F)ccc21	-12.4%	i
CC(NC(=O)c1ccc(C(F)(F)F)cc1)C(c1ccccc1)N1CCOCC1 (centres undefined)	-8.8%	i
COc1ccc(-n2ccnc(NCCc3ccc(Cl)cc3)c2=O)cc1OC	-26.5%	?
CCN(CC)C(=O)Cn1ncc2c([nH]c3ccc(C)cc32)c1=O	-6.0%	1.6%
Cc1ccc2nc(-c3ccc(NC(=O)COCC(=O)O)cc3)sc2c1	-16.3%[7.34 µM]	2.4%[7.34 µM]
C[C@H](CO)N1C[C@H](C)[C@H](CN(C)S(=O)(=O)c2cn(C)cn2)Oc2ccc(NC(=O)Nc3ccc(C(F)(F)F)cc3)cc2CC1=O	-26.8%	i
C/C=C\C=C/C(=O)Nc1cccc(C2=NOC3(C2)C[C@@H](C(N)=O)N(C(=O)C2(C)CC2)C3)c1 (some centres undefined)	-7.6%	i
O=C(NCc1ccc(Cl)cc1)C1CCCN(c2cnccn2)C1 (centres undefined)	-19.6%	-17.7%
O=S(=O)(c1cccc2cccnc12)N(CCO)CCO	-2.9%	8.8%
Cc1ccc(S(=O)(=O)N2CCCC(C(=O)NC3=NCCS3)C2)cc1 (centres undefined)	-8.7%	-8.4%[1.46 µM]
O=C(NCCc1ccccc1)C1CCN(c2nc3ccccc3nc2C(F)(F)F)CC1	-10.2%	0.5%
O=c1c(C=NCc2ccccc2)c(NCc2ccccc2)nc2ccccn12	-21.4%	i
CCC1=NN2C(=N)/C(=C\c3cccn3-c3ccc(Br)cc3)C(=O)N=C2S1	-7.3%	-2.7%
O=C(COC(=O)c1ccccc1)NC1CCCC1	-7.3%	i
Cc1c(C(=O)NCc2ccc3c(c2)OCCO3)sc(=O)n1Cc1ccccc1F	4.2%	5.4%
O=C(Cc1ccccc1Cl)Nc1cccnc1	-12.3%	i
O=C1CN(C(=O)c2ccccc2F)C(c2ccc(F)cc2)c2cc(Br)ccc2N1 (centres undefined)	-6.4%	i
CCOc1ccc(NS(=O)(=O)c2cc(C(=O)N3CCCC3)ccc2Cl)cc1	-12.9%	-2.1%
COc1ccc(NS(=O)(=O)c2ccc(NC(=O)CCNS(=O)(=O)c3ccc(C)cc3)cc2)cc1	-23.9%	i
Cc1cc2cc(CNC(=O)c3ccc4c(c3)OCO4)ccc2[nH]1	8.6%	2.9%
O=C(CC1CCS(=O)(=O)C1)NC1CCCCC1 (centres undefined)	-14.0%	-17.3%
CCOc1ccc(C(C)(C)C)cc1S(=O)(=O)n1nc(C)cc1C	-2.3%	-13.1%
O=C(/C=C/c1ccc(Cl)c([N+](=O)[O-])c1)NCc1cccnc1	-20.7%	-23.1%
COC(=O)NC(Nc1sc2c(c1C(N)=O)CCCC2)(C(=O)OC)C(F)(F)F (centres undefined)	-4.6%	-6.7%
COc1ccc(CN2CCn3ncc(C(=O)Nc4cccc(C)c4)c3C2=O)cc1	2.3%	.
O=c1[nH]nc(N2CCOCC2)c(=O)[nH]1	11.8%	-3.6%
CCOC(=O)c1nc(Nc2cc(C)cc(C)c2)c2ccccc2n1	-6.9%	i
COC(=O)C(Cc1ccc(OC(=O)c2ccc(C)cc2)cc1)N1Cc2ccccc2C1=O (centres undefined)	-4.6%	.
Cc1ccsc1C(=O)C1CCCN(Cc2cnn(C)c2)C1 (centres undefined)	0.7%	i
CCN1CCN(C(=S)Nc2cccc(C(F)(F)F)c2)CC1	-6.2%	-19.1%
Cc1c(C(=O)N(Cc2ccccc2F)C2CCS(=O)(=O)C2)oc2ccccc12 (centres undefined)	-17.8%	-13.2%
COc1cc(C)cc(OC)c1OCC(=O)Nc1cc(C)on1	-18.5%	-19.9%
Cc1c(C(=O)N(C)C)sc2c1c(=O)n(-c1ccc(Cl)c(Cl)c1)c(=O)n2CC(=O)C(C)(C)C	-6.4%	-1.9%
COc1ccc(-c2ccc(C(=O)NCCN(C)C)c3occc23)c(C)c1	-17.4%	8.7%
C[C@@H]1CN([C@H](C)CO)C(=O)CCCn2nncc2CO[C@H]1CN(C)C(=O)Nc1ccc2c(c1)OCO2	4.4%	-7.9%
CN1CCc2nc(SCC(=O)Nc3ccc(OC(F)(F)F)cc3)c(C#N)c(-c3cccs3)c2C1	0.9%	-16.6%
Cc1no[n+]([O-])c1COc1ccccc1/C=N/n1nnnc1N	?	?

# The list goes on:
Compound	Vaccinia Venus	VACV mCherry inh
Cc1ccccc1OCC(O)Cn1c(NCc2ccccc2)nc2c1c(=O)[nH]c(=O)n2C (centres undefined)	-27.8%	-3.8%
COc1cc(C(C[N+](=O)[O-])c2c(C)cc3ccccn23)ccc1O (centres undefined)	4.3%	-1.2%
COC(=O)c1sc(NC(=O)CC(C)C)c(C(=O)OC)c1C	-7.2%	.
COc1cccc(N(CC(=O)Nc2cccc(C(C)=O)c2)S(C)(=O)=O)c1	-13.4%	-23.6%[1.46 µM]
COc1cc(NC(=O)NCC2CCN(Cc3ccccc3Cl)CC2)cc(OC)c1OC	-1.7%	-8.3%
CCCCOc1ccccc1NC(=O)C=C(C)C	-5.3%	-10.3%
COc1ccc(N2CCN(C(=O)COC(=O)CCOc3ccc(C)cc3)CC2)cc1	-11.8%	i
COc1cc(NC(=S)NCCSc2ccc(C)cc2)cc(OC)c1	-6.6%	i
O=C(CCC(=O)c1ccc[nH]1)c1ccc(Cl)cc1	-6.9%	?
COc1ccc(NC(=O)c2c(NCc3ccc(C)o3)sc3c2CCC(C)C3)cc1 (centres undefined)	-14.8%	-5.2%
COC(=O)c1ccc(CNC(=O)CCc2c[nH]c3ccccc23)cc1	10.7%	?
Cc1ccc(Nc2nc(N)[nH]c(=O)c2N=O)cc1	-0.8%	?
Cc1cc(C(=O)Nc2ccc(C)c(C)c2)n(-c2ccccc2)n1	-11.9%	-1.0%
COc1cc(C2c3c(-c4cc(C)ccc4O)n[nH]c3C(=O)N2Cc2cccnc2)cc(OC)c1OC (centres undefined)	-8.6%	-14.4%
COc1ccc(C2CC(=O)c3c([nH]c(C(=O)OC4CCCC4)c3C)C2)cc1OC (centres undefined)	-26.1%	-10.7%
O=C(Nc1cccc(C(=O)O)c1)/C(=C\c1ccccc1)NC(=O)c1ccco1	-4.5%	i
COC(=O)/C(C#N)=C/c1c(Oc2cc(C)cc(C)c2)nc2c(C)cccn2c1=O	-2.5%	i
Cc1cc(C)c2c(CC(=O)Nc3ccc(S(=O)(=O)N4CCCC(C)C4)cc3)coc2c1 (centres undefined)	-10.6%	-12.6%
CC1CCN(c2ccc(C(F)(F)F)cc2N)CC1	-4.0%	-12.1%
Cc1cc(C)cc(C(=O)NCC(=O)OCc2c(C)noc2C)c1	-7.3%	-11.9%
O=C1OC(/C(=C\Nc2cc(Cl)ccc2O)[N+](=O)[O-])c2ccccc21 (centres undefined)	-21.7%	?
COc1ccc(CCNS(=O)(=O)CCNC(=O)c2ccc3c(c2)OCO3)cc1OC	-10.8%	i
CCCCCOc1ccc(CSC(=N)N)cc1[N+](=O)[O-]	?	.
O=C(CSc1ncc2c(n1)-c1cc(Cl)ccc1N(Cc1ccccc1)S2(=O)=O)Nc1ccc(F)cc1F	-26.8%	-13.6%
CCC1CCCCN1S(=O)(=O)c1ccc2c(c1)CCN2C(=O)C1CCC1 (centres undefined)	-20.9%	-25.4%

# A second format for part of the listing above:
# Values run as follows: Vaccinia Venus	VACV mCherry inh
O=C(Nc1cccc(C(=O)O)c1)/C(=C\c1ccccc1)NC(=O)c1ccco1
  -4.5%	i
Cc1cc(C)c2c(CC(=O)Nc3ccc(S(=O)(=O)N4CCCC(C)C4)cc3)coc2c1 (centres undefined)
  -10.6%	-12.6%
CCCCCOc1ccc(CSC(=N)N)cc1[N+](=O)[O-]
  ?	.

# (continued)
Compound	Vaccinia Venus	VACV mCherry inh
O=C(O)c1cccc(S(=O)(=O)N2CCN(S(=O)(=O)c3ccc4ccccc4c3)CC2)c1	-14.6%	i
O=C(c1ccco1)N1CCCC(c2nc3c(nnn3Cc3ccc(F)cc3)c(=O)[nH]2)C1 (centres undefined)	4.5%	-12.5%
CC#CCOCC1CNC(=O)O1 (centres undefined)	-6.8%	i
CCOc1ccc(CN(C(=O)/C=C/c2ccco2)C2CCS(=O)(=O)C2)cc1 (centres undefined)	3.0%[7.34 µM]	-11.5%[7.34 µM]
CC(CCc1ccccc1)NC(=O)CNC(=O)c1ccccc1Br (centres undefined)	-8.5%	i
COc1ccc(-n2nnnc2C2c3ccccc3C(=O)N2C2CCN(Cc3ccccc3)CC2)cc1 (centres undefined)	-6.0%	-10.5%
COc1cccc(NC(=O)c2ccc(NC(C)=O)cc2)c1	-14.1%	.
COC(=O)[C@@]12C[C@@H](CC(=O)N3CCSCC3)C(=O)N(Cc3ccc4c(c3)OCO4)C1=CCC(C)(C)C2	-0.3%	-29.3%
C=C(C)c1cc2cc(C(C)=O)c(O)cc2o1	-7.5%	-9.5%
CO[C@H]1CN(C)C(=O)c2ccc(NC(=O)NC(C)C)cc2OC[C@H](C)NC[C@H]1C	-6.0%	-12.1%
COc1ccc(C2OC(=O)CC2C(=O)NCc2ccc(F)cc2)cc1OC (centres undefined)	-14.0%	-21.9%
O=C(Nc1nc2ccccc2s1)c1cccc(N2C(=O)CCC2=O)c1	-10.5%	-11.7%
CN(C)C(=O)N1CCN(C(=O)c2ccco2)CC1	7.4%	-2.4%
C#CCOCCOCCOCCNc1nc(N2CCN(C(=O)Cn3cc(CCCN=C(N)N)nn3)CC2)nc(N2CCN(C(=O)[C@H](CCCCN)n3cc(CCC(=O)O)nn3)CC2)n1	-8.3%	-27.6%
CCCNC(=O)C(Cc1ccccc1)NC(=O)c1ccc(C(C)(C)C)cc1 (centres undefined)	-13.7%	i
N/C(=N\OC(=O)COc1ccccc1Cl)c1ccccn1	7.3%	15.7%
COc1cc(C(=O)OCCn2c(=O)c3c(ncn3CCN(C)C)n(C)c2=O)cc(OC)c1OC	-3.0%	i
Cc1ccc(NC(=O)C2c3ccccc3Oc3ccccc32)c(C)c1	-5.9%	i
Cc1ccc(-n2[nH]c(C)c(C=Nc3cc(C)ccn3)c2=O)cc1	-11.7%	-21.5%
C=CCNC(=O)CN1CCC(n2nnc3cc(C(F)(F)F)ccc32)CC1	-2.5%	-7.2%
O=C(CCc1nc2ccccc2[nH]1)Nc1ccc2c(c1)OCCO2	-5.1%	-6.2%
O=C(Nc1cc(S(=O)(=O)N2CCOCC2)ccc1O)c1ccc2c(c1)S(=O)(=O)c1ccccc1C2=O	4.8%	-14.5%
O=C(Nc1ccc(SC(F)F)cc1)c1ccc2nccnc2c1	-21.3%	-14.0%
CCn1cc(CNC(=O)c2cc([N+](=O)[O-])c(C)c([N+](=O)[O-])c2)cn1	-18.9%	-13.7%
O=C(CN1C(=O)N/C(=C\c2ccccc2OCc2ccc(C(=O)O)cc2)C1=O)Nc1ccc(F)cc1	-1.9%	i
NS(=O)(=O)c1cccc(NC(=S)NCc2ccccc2)c1	-9.7%	i
Cc1cccc(N(C(=O)c2snc(C(N)=O)c2N)C(C(=O)NCc2ccccc2)c2ccncc2)c1 (centres undefined)	-25.8%	?
Cc1ccc(CNC(=O)C2CCN(S(=O)(=O)c3ccc4nc5c(c(C(=O)O)c4c3)CC(C)CC5)CC2)cc1 (centres undefined)	-2.9%	-4.0%
Cc1cc(C)n2nc(CNS(=O)(=O)c3cccc(Cl)c3)nc2n1	0.8%	-8.7%
CC[C@@]1(O)C(=O)OCc2c1cc1n(c2=O)Cc2cc3cc(O)ccc3nc2-1	?	-16.0%
C#CCOc1ccc(/C=C2/C(=O)N(c3ccc(S(N)(=O)=O)cc3)N=C2C)cc1OC	-1.7%	i

# Screens as filed in PubChem.
